Screening results deposited in PubChem by ICCB-Longwood Screening Facility, Harvard Medical School.
Sa growth 42C – blocks Staphylococcus aureus growth; S. aureus RN4220 growth, OD600, 20 h, 42 °C; hits give low values; relative growth, % (test concentration not listed); 170,000 compounds, 0.53% hits; AID 720641;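 active = growth at 42 °C up to 50% and 20 or more points under that at 30 °C, or under 10% at both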;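 note: 300 nL library stock went into each well; scaled to the means of positive and negative controls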
GIV Gai3 FP – blocks GIV peptide binding to rat Galpha-i3; percent of control (FP), % (no concentration beside the values); 210,000 compounds, 0.42% hits; P08753; Galpha-i3/FITC-GIV peptide fluorescence polarization, 90 min; hits give low values; scaled: aluminum fluoride 0%, vehicle 100%;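 active = replicate mean at 85% of control or lower, very high polarization wells dropped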;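 note: wells of about 15 µL received 100 nL stock; the first replicate is given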
Target sequence (P08753 whole entry, looked up): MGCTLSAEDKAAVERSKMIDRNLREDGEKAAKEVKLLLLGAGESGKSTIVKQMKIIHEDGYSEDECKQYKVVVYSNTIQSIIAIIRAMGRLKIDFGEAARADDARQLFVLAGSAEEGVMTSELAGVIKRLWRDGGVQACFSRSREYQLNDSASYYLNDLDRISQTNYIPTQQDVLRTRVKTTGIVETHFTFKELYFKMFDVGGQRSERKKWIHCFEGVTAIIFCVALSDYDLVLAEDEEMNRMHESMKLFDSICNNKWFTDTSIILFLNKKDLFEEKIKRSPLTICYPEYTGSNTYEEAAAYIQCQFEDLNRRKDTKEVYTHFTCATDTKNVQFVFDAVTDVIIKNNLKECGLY
HCMV UL50-53 inh – inhibitors of HCMV UL50-UL53 nuclear egress complex interaction. 190,000 compounds, 0.15% hits. AID 1918969. HTRF UL50-UL53 interaction, normalized percent inhibition. inhibition, % (no concentration beside the values);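 active = both replicates at 50% or more, plus weaker picks with an unusually low signal ratio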;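 note: stock transfer was 100 nL into about 20 µL; 0% = negative control wells and 100% = wells with untagged competitor protein; inactives centre near -12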
Sa growth 42C second temp – second read-out of Sa growth 42C, no call of its own (marks repeat the call); relative growth, %; measured here: growth at 30 °C;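 optical density after 20 h as mean of two plates; 100% = untreated growth and lower means inhibition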
An asterisk follows results filed as active; / = no result given; & = joins results of further samples.

SMILES	Sa growth 42C	Sa growth 42C second temp	GIV Gai3 FP	HCMV UL50-53 inh
Cc1cnc(C(=O)OCC(=O)Nc2ccc3c(c2)OCCO3)cn1	96	84	/	0
COc1ccc(C2CC(c3cccs3)=NN2C(=O)CSc2nnnn2C2CC2)cc1OC (configuration not stated)	82	93	/	-50
CC(C)COc1ccc(C(=O)Nc2scc(-c3ccc(Br)cc3)c2C(=O)OC(C)C)cc1	91	91	105	-13
O=C(CNC(=O)C1CCCCC1)OCn1nnc2ccccc2c1=O	77	89	/	-17
Cn1c(C(=O)NCc2ccc(Cl)cc2)cc2c(=O)n(C)c3ccccc3c21	89	102	106	-10
CC(=O)Nc1ccc(-c2cn3ccccc3n2)cc1	94	86	106	-14
CCOC(=O)Cn1c(=O)oc2cc(S(=O)(=O)N3CCN(c4ccccc4OC)CC3)ccc21	101	82	108	2
O=C(O)/C=C/C(=O)N1CCC(C(=O)c2ccc(F)cc2)CC1	120	94	100	-6
Cc1cccc(NCC(=O)Nc2ccc3c(c2)oc(=O)n3C)c1	89	92	106	-33
CCOc1cc(C2NC(=O)N(C)C(C)=C2C(=O)OCCc2ccccc2)ccc1O (configuration not stated)	/	/	105	-2
O=C1c2sc3nc4n(c(=O)c3c2CCC1Sc1ccccc1)CCCCC4 (configuration not stated)	87	87	101	-14
COc1ccc(-c2noc(N3CCC(C(=O)Nc4ccc(C)c(F)c4)CC3)n2)cc1OC	103	87	102	-21
c1ccc2nc3c(nc2c1)Nn1cnnc1S3	94	62	86	-13
COC(=O)c1c(NC(=O)C2CC2)sc(C)c1C	86	84	108	0
O=S(=O)(Nc1ccc(Cl)c(C(F)(F)F)c1)c1cnc[nH]1	131	77	100	/
CCOc1ccccc1CNC(=O)C1=C(C)C(=O)OC12CCN(C(C)=O)CC2	98	101	106	/
O=C(Nc1cccc(C(F)(F)F)c1)c1cc[n+]([O-])cc1	91	94	/	-12
CCN(CC)c1ccc(/C=N/O)c(O)c1	110	76	/	-27
COc1cc2c(=O)c(S(=O)(=O)c3ccc(C(C)C)cc3)cn(Cc3ccccc3C)c2cc1OC	120	86	107	-22
O=C(O)CCCc1nc(-c2cnc3n(c2=O)CCS3)no1	92	89	103	/
O=C(CSc1ncnc2sccc12)N(Cc1cccs1)c1ccc2c(c1)OCCO2	89	97	/	-17
CC(CC(=O)O)n1ccnc1 (configuration not stated)	93	87	100	-12
Nc1nc(SCC(=O)N2CCCC2)[nH]c(=O)c1NC(=O)c1cccs1	96	87	100	-33
C=C(C)CNc1nc(-c2ccccc2)c(-c2ccccc2)s1	111	90	100	/
O=S1(=O)CC(O)C(Nc2ccc(Cl)cc2)C1 (configuration not stated)	109	96	/	9

In the list so far, these have a carbonyl joined to an NH by a bond outside any ring.
SMILES	Sa growth 42C	Sa growth 42C second temp	GIV Gai3 FP	HCMV UL50-53 inh
Cc1cnc(C(=O)OCC(=O)Nc2ccc3c(c2)OCCO3)cn1	96	84	/	0
CC(C)COc1ccc(C(=O)Nc2scc(-c3ccc(Br)cc3)c2C(=O)OC(C)C)cc1	91	91	105	-13
O=C(CNC(=O)C1CCCCC1)OCn1nnc2ccccc2c1=O	77	89	/	-17
Cn1c(C(=O)NCc2ccc(Cl)cc2)cc2c(=O)n(C)c3ccccc3c21	89	102	106	-10
CC(=O)Nc1ccc(-c2cn3ccccc3n2)cc1	94	86	106	-14
Cc1cccc(NCC(=O)Nc2ccc3c(c2)oc(=O)n3C)c1	89	92	106	-33
COc1ccc(-c2noc(N3CCC(C(=O)Nc4ccc(C)c(F)c4)CC3)n2)cc1OC	103	87	102	-21
COC(=O)c1c(NC(=O)C2CC2)sc(C)c1C	86	84	108	0
CCOc1ccccc1CNC(=O)C1=C(C)C(=O)OC12CCN(C(C)=O)CC2	98	101	106	/
O=C(Nc1cccc(C(F)(F)F)c1)c1cc[n+]([O-])cc1	91	94	/	-12
Nc1nc(SCC(=O)N2CCCC2)[nH]c(=O)c1NC(=O)c1cccs1	96	87	100	-33

Next structures follow.
SMILES	Sa growth 42C	Sa growth 42C second temp	GIV Gai3 FP	HCMV UL50-53 inh
N#Cc1ccc(CSc2cccc3cccnc23)cc1	73	59	/	-47
O=C(CCC(=O)c1ccccc1)OCc1ccccc1	99	81	100	-15
CCCn1ccc2c(OCC(=O)Nc3ccc(C(F)(F)F)cc3)cccc2c1=O	110	85	98	/
CCc1ccc(CN2C(=O)CN(S(=O)(=O)c3ccc(OC)cc3)CC2(C)C(=O)NC2CCCCC2)cc1 (configuration not stated)	/	/	102	-20
COC(=O)c1c(NC(=O)/C(C#N)=C/c2ccc(OC)cc2)sc2c1C(C(=O)OC)CC2 (configuration not stated)	98	81	95	-46
CCOC(=O)c1c(NC(=O)c2cc(-c3ccccc3OC)on2)sc(C)c1C	94	89	103	6
Cc1ccc(-c2ccc(=O)n(CC(=O)Nc3ccc(C)cc3Cl)n2)cc1	102	78	104	-19
CCC(C)c1ccccc1NC(=O)C(C)NC(C)=O (configuration not stated)	103	99	/	1
CCn1c(=O)c(C(=O)CSc2nnnn2C2CC2)c(N)n(Cc2ccccc2)c1=O	115	99	/	8
CCCC1=Nc2cc(C(=O)NCCN3CCN(CC)CC3)ccc2Sc2ccccc21	116	100	108	4
O=C(NC1CCCCC1)N1CCC(n2cnc3cccnc32)CC1	/	/	102	-12
CC(C)OC(=O)c1sc2nc3c(cc2c1N)CN(C(C)C)CC3	88	81	108&105	-86&-124
CCCOC(=O)CC1C(=O)NCCN1C(=S)NC(=O)Cc1ccc(Cl)cc1 (configuration not stated)	103	82	103	-23
COc1ccc(-c2nnc(SCC(=O)N/N=C/c3ccco3)n2-c2ccccc2)cc1OC	85	75	98	-39
Clc1ccc(-c2noc(CN3CCCC3)n2)cc1	104	82	99&97	-12&-34
C/C(=N/N1CCN(c2ccccc2)CC1)c1ccccc1	92	85	85*	-22
Cc1cc(=O)n2c(n1)-c1ccccc1C2	121	106	/	2
O=C(O)Cn1c(-c2ccc(Br)cc2)nc(=S)c2c1CCCC2	80	93	106	/
CN(C)C(=O)CSCc1c(Cl)cccc1Cl	66	88	/	-5
CCOCCCNC(=O)Cn1nc(C)n2c(cc3cc(C)ccc32)c1=O	142	87	102	-50
Cc1nc2c(c(C)c1CCC(=O)Nc1ccc(OC(F)(F)F)cc1)c(=O)n(C)c(=O)n2C	91	92	98	-23
C#CCSc1nc2c(c(=O)[nH]1)C(c1ccc(O)c(O)c1)CC(=O)N2 (configuration not stated)	/	/	107	-13
Cc1ccc(-n2ncc(C(=O)NCc3ccc4c(c3)OCO4)c2C2CCN(C(=O)OC(C)(C)C)CC2)cc1C	86	91	111	/
CC1(CC(=O)Nc2ccccc2)NC(=S)N(c2ccccc2)N1 (configuration not stated)	97	89	96	-1
Cc1cccc(-c2nc(CSc3nc4ccccc4n4c(C)nnc34)c(C)o2)c1	/	/	101	-16
SMILES	Sa growth 42C	Sa growth 42C second temp	GIV Gai3 FP	HCMV UL50-53 inh
CC1CCN(C(=O)COc2ccccc2C#N)CC1	95	83	99	-8
CCOc1ccsc1C(=O)Nc1ccc(Cl)cc1	71	73	95	0
CCN1CCN(CCNC(=O)Nc2ccccc2C)CC1	98	97	107	/
Cc1nc(NCc2ccccc2)c2c(C)noc2n1	/	/	100	-4
CCOc1ccccc1NC(=O)C(=O)NCCc1sc2nc(-c3ccc(OC)cc3)nn2c1C	128	88	101	/
COC(=O)c1cc2sccc2n1C(C)C(=O)N1CCCc2ccccc21 (configuration not stated)	123	71	104	/
CCN(c1cccc(C)c1)S(=O)(=O)c1nnc(NC(=O)c2cccs2)s1	88	67	105	-31
Cc1nn2c(NCCN(C)C)cc(C(C)(C)C)nc2c1-c1ccc(F)cc1	/	/	101	-23
O=C(Nc1nnc2n1CCCS2)c1ccccc1	95	81	107	-18
CC(=O)n1c(O)c(C2=NC(=S)NC2=O)c2ccccc21	94	79	102	2
COc1ccc(OC)c(CNC(=O)C2CCCCN2S(=O)(=O)c2ccc(F)cc2)c1 (configuration not stated)	88	90	101	/
C=CCc1c(C)nc(SC)nc1Nc1ccc(OC)cc1	58	45	96	-14
COc1ccc(Cl)cc1S(=O)(=O)N1CCN(c2cc(-c3cccc(C)c3)ncn2)CC1	/	/	101	-11
N#Cc1c(-c2cccc3ccccc23)c(C#N)c2nc3ccccc3n2c1N	/	/	111	2
OCn1c2ccccc2c2ccccc21	91	98	102	0
CC(C)(C)C(=O)C[n+]1cccc(C(N)=O)c1	101	87	103	/
O=c1n(Cc2ccc(F)cc2)nc2n1-c1cc(Cl)ccc1OC2	87	90	104	2
COc1ccccc1C1CC(=O)Nc2c1c(C)nn2-c1nc(C)cc(C)n1 (configuration not stated)	/	/	99	4
Cc1ccc(NC(=O)c2ccc(COc3ccccc3Cl)o2)cc1	93	97	99	/
Cc1ccc(OC(=O)CCc2c(C)nc3ncnn3c2C)cc1	89	83	96	-19
O=C(Cn1c(=O)sc2ccccc21)Nc1sc2c(c1C(=O)O)CCCC2	86	30	99	-13
CN(C)c1ccc(C(=O)Nc2ccc(-c3nc4ccccc4o3)cc2)cc1	96&98	91&84	102&104	-8&-21
CCC(SC1=Nc2ccccc2C2=NC(CC(C)C)C(=O)N12)C(=O)N1CCc2ccccc21 (configuration not stated)	/	/	106	2
O=C(Nc1ccc2oc3ccccc3c2c1)C1COc2ccccc2O1 (configuration not stated)	104	93	/	-9
CCN(CC(=O)Nc1ccc2c(c1)CCC2)CC(=O)Nc1ccc2c(c1)OCCO2	98	91	/	-18
SMILES	Sa growth 42C	Sa growth 42C second temp	GIV Gai3 FP	HCMV UL50-53 inh
c1csc(-c2cnc3n2CCCC3)c1	97	87	/	-10
O=C(O)C1=C(C(=O)Nc2ccc(F)c(Cl)c2)CCCC1	114	77	105	-13
CCC(=O)Nc1cc(NC(=O)CC)cc(C(=O)O)c1	96	98	106	-1
O=C(CCc1nc(-c2ccc(Cl)cc2)no1)Nc1ccc(F)cc1	98	79	101	/
O=c1[nH]c2cc(F)ccc2c(O)c1-c1ccccc1	91	94	98	-4
CC1C2CC(CN2C(=O)Cc2c[nH]c3ccccc23)CC1(C)C (configuration not stated)	119	104	114	4
NC(=O)c1nc(Nc2ccccc2)sc1NC(=O)c1ccccc1Br	81	87	97	/
Cc1nc(NC(=O)c2c(-c3ccccc3)c(-c3ccccc3)nn(C)c2=O)sc1C	81	66	99	-40
CC(=O)N1CCCSc2ccc(S(=O)(=O)Nc3ccc(Cl)cn3)cc21	/	/	99	-16
NC(=O)c1nnc2ccc(Cl)cc2c1N	107	87	105	-58
CCc1ccc(NS(=O)(=O)c2c(C)nc3sc4cc(C)ccc4n3c2=O)cc1	/	/	103	-30
CCOc1ccc(NC(=O)CSc2cc(C)c3ccccc3n2)cc1	142	89	100	/
COc1ccc(-c2cc3ccccn3c2C(=O)c2cccnc2)c(OC)c1	92	64	/	-99
COC(=O)CSc1nnc(-c2ccccc2)o1	109	98	104	/
Cc1cc2ccccc2n1CCNC(=O)c1ccc(F)cc1	124	88	108	-1
N#Cc1c(F)cccc1NCCc1ccccn1	88	84	98	-30
O=S(=O)(NCc1nc2cccnc2n1Cc1ccc(F)cc1)c1ccc2c(c1)CCCC2	106	83	106	/
Cc1cc(C(F)(F)F)nc2c(Br)c(C(C)(C)C)nn12	98	93	103	-12
Cc1ccc(S(=O)(=O)c2c(C)cc(C)n(CC(=O)NCCC3=CCCCC3)c2=O)cc1	/	/	100	4
CCc1ccc(C2=C(C)C(=O)N(CC(=O)NCc3ccc(OC)cc3OC)S2(=O)=O)cc1	/	/	103	-28
COc1ccc(CNC(=O)c2ccc(-n3nnc4cccnc43)cc2)cc1	/	/	123	-28
CCOC(=O)Nc1ccc2ncn(C)c(=O)c2c1	92	102	110	7
O=C(OCC(=O)N1CCCCC1)c1ccccc1O	106	97	/	-10
CCCCN(C)C(=O)c1cn(C2CCCC2)c(=O)c2c1c1ccccc1n2C	91	61	98	-26
COc1ccc(S(=O)(=O)NCCc2csc(-c3ccc(Cl)cc3)n2)cc1C	/	/	104	-11
SMILES	Sa growth 42C	Sa growth 42C second temp	GIV Gai3 FP	HCMV UL50-53 inh
C=CCn1c2ccccc2c2nnc(SCc3ccc4nonc4c3)nc21	82	77	/	-14
COc1cccc(-c2csc(-c3nc(-c4ccc(OC)c(F)c4)cs3)n2)c1	/	/	103	11
O=S(=O)(Nc1ccc(O)cc1)c1cc(Br)ccc1Br	89	79	/	-20
O=C(c1cc2ccccc2oc1=O)N(Cc1cccs1)Cc1cccs1	98	93	101	-21
CCOC(=O)Cc1csc(COc2ccc(C3SCCS3)cc2)n1	104	89	104	6
CC12CN(C(=O)Cc3ccccc3)CC(C)(CN(C(=O)Cc3ccccc3)C1)C2=O	95	90	97	-17
COc1cc(OC)c(C(=O)CCCN2CCCC2)c(OC)c1	99	100	/	8&-21&-15
N#Cc1c(-c2ccc3c(c2)OCO3)cc(-c2ccccc2)nc1N	101	82	/	-2
O=C(c1ccc(Cl)cc1)C1CCN(C(=O)N2CCOCC2)CC1	90	96	101	-4
CN(C)C(=N)c1n[nH]nc1SCc1ccccc1	82	95	93	/
COc1ccccc1NC(=O)c1cc2ccc3cccnc3c2[nH]1	101	78	106	/
C=C(C)CN=C1SC(C(=O)Nc2sc3c(c2C(=O)OC)CCC3)C(N)=C1C(N)=O (configuration not stated)	99	88	/	-22
CCOC(=O)c1sc(SC)c(S(C)(=O)=O)c1N	80	84	95	-26
COc1ccc(C)cc1NC(=O)N1CCN(S(=O)(=O)c2ccc3c(c2)NC(=O)CO3)CC1	/	/	110	-16
COc1ccc(OC)c(NC(=O)[C@H](Cc2ccccc2)N2Cc3ccccc3C2=O)c1	104	89	107	6
